From PubChem
Biofilm kill mix – mixtures killing C. albicans biofilm; C. albicans biofilm persisters + clotrimazole, fluorescence viability; primary screen in compound mixtures of four per well; 120,000 compounds, 0.02% hits; inhibition, % at 7.6 µM;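 active = inhibition above 30.3% in the primary screen of four-compound pools, then above 30% when the compound was retested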;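 also: compounds exposed to preformed 24 h biofilms for 48 h; the number belongs to the whole pool; some results filed as inactive read as strong as hits; inactives centre near 12; 0% = biofilm with clotrimazole alone and 100% = kill control; retested singly at about 60 µM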
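System: C. albicans CAF4-2 wild-type biofilms; Medium: RPMI/MOPS medium, pH 7.0; Reagent: Clotrimazole, 50 µg/mL; Times: biofilm formation 24 h, compound exposure 48 h, 37 °C; Detection: 2-h Alamar Blue fluorescence, 535/590 nm excitation/emission; Evaluation: percent inhibition of biofilm viability.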
Active calls of the source: *; & = joins results of further samples. Only part of the results is shown (hit frequency here may not be typical).

SMILES	Biofilm kill mix
CC(=O)N1CCN(S(=O)(=O)c2ccc(C)c([N+](=O)[O-])c2)C1C(C)C (stereo unspecified)	8
O=C(O)c1ccc(N2CCS(=O)(=O)CC2)cc1	0
Cc1ccc2nsnc2c1NC(=O)CCl	7
Cn1cccc1/C=N/N1CCN(Cc2ccc(Cl)cc2)CC1	11
COC(=O)c1cc(S(=O)(=O)Nc2cccc(S(N)(=O)=O)c2)oc1C	26
CCC(C)NS(=O)(=O)c1ccc(S(=O)(=O)N2CC=C(c3ccc(F)cc3)CC2)cc1 (stereo unspecified)	4
COc1ccc(/C=N/NC(=O)CN2CCCCCCC2)c(C)c1C	11
O=C1NC(=NCc2ccccc2)S/C1=C/c1ccc(O)cc1	19
C#CCN(Cc1ccco1)C(=O)c1cc(COc2ccc(F)cc2Cl)on1	10
O=C(N/N=C/c1ccc2nccnc2c1)c1ccncc1	19
CC(=O)NC(=S)Nc1cccc2ccc(C)nc12	20
COc1ccc(/C=C2\N=C(c3ccccc3Cl)NC2=O)cc1	9
CCn1nc(C)c(CNC(=O)Nc2ccccc2C(=O)OC)c1C	16
COC(=O)c1cccc(C(=O)N2CCC(CO)(Cc3ccccc3Cl)CC2)c1	-3
COc1ccc(CNC(=O)c2ccc(C(C)(C)C)cc2)cc1	31
COc1ccc(OC)c(NC(=O)CCNS(=O)(=O)c2ccc3c(c2)oc(=O)n3C)c1	12
CCOC(=O)C1=C(C)N(c2ccc(C)cc2)C(=O)/C1=C\c1ccc(O)c(OC)c1	12
Cc1onc(-c2c(Cl)cccc2Cl)c1C(=O)Nc1nc(C(C)(C)C)cs1	22
CCOc1ccc(NC(=S)Nc2ccc(OC(F)(F)F)cc2)cc1	-6
CCOC(=O)C(C)Oc1cc(Cl)c(C=O)cc1OC (stereo unspecified)	12
Cc1ccccc1C(=O)c1cccn1CC(=O)NCCCN1CCc2ccccc2C1	27
CC(=O)Nc1sc2c(c1C(c1cccc(Cl)c1)N1CCN(CCO)CC1)CCCC2 (stereo unspecified)	6
Cn1c(NC(=O)C[n+]2cc(-c3ccc(Cl)c(Cl)c3)n3c2CCC3)cc(=O)n(C)c1=O	16
Cc1ccc(NC(=O)C2CC(=O)N(Cc3ccco3)C2)cc1 (stereo unspecified)	19
O=C(CS(=O)(=O)c1ccccc1)N1CCc2ccccc21	-12
CC(C)CC1=C/C(=C/c2ccc(-c3ccccc3)o2)C(=O)O1	6
COc1ccc(NC(=S)N2CCNC(=O)C2CC(=O)Nc2cccc(Cl)c2C)cc1 (stereo unspecified)	7
COc1cccc(OC)c1C(=O)NC(=S)NCc1ccccc1	5
C/C(=N\O)C(C)(C)Nc1cccc(F)c1	18
Cc1ccccc1CN1CCN(S(=O)(=O)c2cccs2)CC1	5
CC(C)(C)NC(=O)C(c1c[nH]c2ccccc12)N(C(=O)Cn1nnc(-c2ccc(Cl)cc2)n1)c1ccccc1F (stereo unspecified)	8
O=[N+]([O-])c1ccc(OS(=O)(=O)Cc2ccccc2)cc1	13
COc1cc(/C=C/C(=O)NC(C)(C)C)ccc1OCc1ccccc1	12
Cc1cc2c(NC(=O)CCCC(=O)O)cccc2nn1	23
Cc1cccc(NC(=S)N2CCN(c3cc(C)ccc3C)CC2)c1	9
Fc1cccc(CSc2ccc3nnc(-c4ccccn4)n3n2)c1	18
O=C(Nc1ccc(Br)cn1)c1ccc([N+](=O)[O-])o1	16
Cc1ccc(/C=C2/NC(=O)N(Cc3ccccc3)C2=O)o1	10
COc1nc(Cc2ccc(Cl)cc2)nc2ccccc12	17
O=C(Cn1c2c(c(=O)n3ncnc13)CCC2)N/N=C/c1ccc(Cl)cc1	18
Cc1cc(C)n(CCC(=O)N=Nc2c(O)[nH]c3ccc(Br)cc23)n1	24
CC(C)Oc1ccc(/C=N/NC(N)=S)cc1	14
Cc1ccc(NC(=O)CCC(=O)NNC(=S)Nc2ccccc2)c(C)c1	6
Cc1ccc(CN2CCN(/N=C/c3cccnc3)CC2)c(C)c1	12
COc1ccc(/C=C(\C#N)C(=O)Nc2ccc3[nH]c(=O)[nH]c3c2)cc1	14
COc1ccc(NS(=O)(=O)c2ccc(S(=O)(=O)N3CCOCC3)cc2)cc1	9
COc1ccc(/C=N/NC(=O)CC(=O)NC2CCCCC2)cc1	6
Cc1cccc(-c2nc(N)nc(N)n2)c1	19
O=C(c1ccccc1)c1cccn1CC(=O)N1CCc2ccccc2C1	-2
Cc1nnc(SCc2c(Cl)cccc2[N+](=O)[O-])s1	10
CN(C)CCCN(Cc1cc2cc3c(cc2[nH]c1=O)OCO3)C(=S)Nc1cccc(Cl)c1	19
CC(=O)c1ccc(N2CCN(C(=S)Nc3ccc(Oc4ccccc4)cc3)CC2)cc1	13
O=C(C(c1ccccc1)c1ccccc1)N1CCC(c2nc(-c3ccccc3Cl)no2)CC1	10
COc1ccc(C)cc1S(=O)(=O)Nc1cccc(C)c1	-5
CCOC(=O)NC(Nc1ccc(OC)cc1)(C(F)(F)F)C(F)(F)F	9
COc1ccc(/C=N/NC(=O)COc2cc(C)cc(C)c2)cc1COC(C)=O	21
COC(=O)c1cccc(C23CC4(C2)[C@H](CN(Cc2ccc(-c5ccccc5)cc2)[C@@H]4c2ccccc2)C3c2ccccc2)c1 (stereo partly specified)	14
CC(C)=C(NC(=O)c1ccccc1)C(=O)NCc1ccccc1	4
COc1ccc2cc(-c3nc4ccccc4n3C)c(=O)oc2c1	15
COc1ccc(N(Cc2ccccc2)S(=O)(=O)c2ccc(C)cc2)cc1	7

Ordered by length of the SMILES (lowest first): 3 of the compounds above.
SMILES	Biofilm kill mix
Cc1cccc(-c2nc(N)nc(N)n2)c1	19
O=C(c1ccccc1)c1cccn1CC(=O)N1CCc2ccccc2C1	-2
CN(C)CCCN(Cc1cc2cc3c(cc2[nH]c1=O)OCO3)C(=S)Nc1cccc(Cl)c1	19

(further entries)
SMILES	Biofilm kill mix
COC(=O)/C(=N\Nc1ccc(Cl)cc1)Sc1nnc(-c2ccc(OC)cc2)n1C	6
CCCNC(=S)N1CCC(NC(=O)Nc2ccc(C)cc2)CC1	18
NC(=O)CSc1nc(-c2ccccc2)c(-c2ccccc2)o1	18
S=C(Nc1ccc(Cl)cc1)N1CCCC1	6
O=C(NCCCN1CCOCC1)C(=O)N/N=C/c1ccc2c(c1)OCO2	31
COC(=O)C1=C(C)N(C)C(=S)NC1c1ccc(Cl)cc1 (stereo unspecified)	9
O=C(O)CCNS(=O)(=O)c1ccc2c(c1)CCCC2	12
COc1ccc(-c2nnn(CC(=O)NCc3ccccc3)n2)cc1OC	17
CSc1sc(C(=O)OC(C)C)c2c1C(=O)CC(C)(C)C2	18
Cn1cnnc1SCC(=O)Nc1ccc(OC(F)F)cc1	16
O=C(O)CCCNC(=O)c1ccc(NC(=O)Cc2ccc(Cl)cc2)cc1	21
Cc1ccc(NC(=O)Cc2ccc3c(c2)OCCO3)cc1S(=O)(=O)N1CCCCC1	17
NC(=O)CC(NC(=O)c1ccccc1)c1ccc(NCCc2ccc(Cl)cc2)c([N+](=O)[O-])c1 (stereo unspecified)	1
COC(=O)CNC(c1ccccc1)c1cc(Br)ccc1N (stereo unspecified)	18
O=[N+]([O-])c1ccc2nc(SCc3cn4cccnc4n3)[nH]c2c1	13
COC(=O)c1cc2n(n1)CCCNC2=O	11
CC(C)S(=O)(=O)c1csc(NC(=O)Nc2cccc([N+](=O)[O-])c2)c1Cl	7
Cn1nc(C(F)(F)F)c2cc(C(=O)Nc3ccc(F)cc3)sc21	18
COCCNC(=S)NN=C1CCCCCC1	18
CCOC(=O)c1sc(NC(=O)c2cc(-c3cccc(O)c3)on2)c(C(=O)OCC)c1C	12

Shown as labelled records: entries from further up.
mol: Cn1cnnc1SCC(=O)Nc1ccc(OC(F)F)cc1
  Biofilm kill mix: 16
mol: O=C(O)CCCNC(=O)c1ccc(NC(=O)Cc2ccc(Cl)cc2)cc1
  Biofilm kill mix: 21

The main list resumes, repeating the seven entries before the break.
SMILES	Biofilm kill mix
COC(=O)CNC(c1ccccc1)c1cc(Br)ccc1N (stereo unspecified)	18
O=[N+]([O-])c1ccc2nc(SCc3cn4cccnc4n3)[nH]c2c1	13
COC(=O)c1cc2n(n1)CCCNC2=O	11
CC(C)S(=O)(=O)c1csc(NC(=O)Nc2cccc([N+](=O)[O-])c2)c1Cl	7
Cn1nc(C(F)(F)F)c2cc(C(=O)Nc3ccc(F)cc3)sc21	18
COCCNC(=S)NN=C1CCCCCC1	18
CCOC(=O)c1sc(NC(=O)c2cc(-c3cccc(O)c3)on2)c(C(=O)OCC)c1C	12
COc1cc2nc(C3CCC3)nc(N3CCN(c4ccccc4OC)CC3)c2cc1OC	15
CC(C)(C)C(=O)CSc1nnc(Nc2ccccc2)s1	5
O=C(/C=C/c1ccccc1)Nc1cc(C(=O)O)cc(C(=O)O)c1	10
O=C(CSc1cccc[n+]1[O-])c1ccc(Cl)cc1	-1
O=C1CC(c2cccc(Cl)c2)CC(O)=C1C=Nc1cccc(Cl)c1 (stereo unspecified)	17
Cc1nonc1NC(=O)CSc1nc2ccccc2[nH]1	14
CC(C)Cc1nc(Cl)c(C#N)c2c1CCCC2	15
O=C(Nc1ccccc1)NC1CCS(=O)(=O)C1 (stereo unspecified)	17
CNC(=O)c1nc(C)n(-c2ccc(Cl)cc2Cl)n1	5
CC(C)c1ccc(NC2=NCC(=O)N2Cc2cccs2)cc1	19
CC(=O)Nc1ccc(NCN2C(=O)[C@@H]3[C@H]4CC[C@H](C4)[C@@H]3C2=O)cc1	9
CCn1cc(CNC(=O)c2cccc([N+](=O)[O-])c2)c(C)n1	-14
COc1ccc(NC(=O)c2cc(C)nc3ccccc23)cc1S(=O)(=O)Nc1ccccc1Cl	11
COc1ccc(/C=C/C2=Nc3ccccc3NC(C)(C)C2)cc1OC	22
CCCC(=O)Nc1ccc(S(=O)(=O)N2CCOCC2)cc1	9
Cc1c(/C=N\NC(=O)c2ccc(F)cc2)cnn1C	15
CCn1c(O)c(N=N)c2ccccc21	4
COC(=O)/C=C1/SC(=NC(=O)c2ccccc2)NC1=O	8
Cc1ccc(N2C(=O)C3N=NN(CC(=O)N4N=C(c5ccccc5)CC4c4ccccc4)C3C2=O)cc1 (stereo unspecified)	8
O=S(Cc1ccc(Br)cc1)Cc1nnc(SCc2ccc(Br)cc2)n1-c1ccccc1 (stereo unspecified)	-9
CC(=O)Nc1ccc(S(=O)(=O)N(C)CC(=O)OCC(=O)c2cc(C)n(-c3ccc4c(c3)OCO4)c2C)cc1	11
CSc1nc(C)c(CCOCc2ccc(F)cc2)c(=O)[nH]1	22
NS(=O)(=O)c1ccc(N2C(=O)C(=O)/C(=C(/O)c3ccccc3)C2c2ccc(Cl)cc2)cc1 (stereo unspecified)	13
CN(CC(=O)Nc1ccc(F)cc1)c1ccc(S(=O)(=O)N2CCCCC2)cc1[N+](=O)[O-]	18
CCc1ccc(CN(C)Cc2nc(-c3cccc(Cl)c3)no2)nc1	9
O=S(=O)(Nc1nc2ccccc2nc1Nc1ccc2c(c1)OCO2)c1ccccc1	15
CC(NC(=O)Cc1ccc([N+](=O)[O-])cc1)c1ccc2c(c1)OCO2 (stereo unspecified)	16
CC(C)CN1C2CCCC1CC(NC(=S)NCc1ccco1)C2 (stereo unspecified)	18
C=CCn1c(P(C)(=O)O)nc2ccccc21	18&10
CC(C)N=C1SC(CC(=O)Nc2ccccc2)C(=O)N1C(C)C (stereo unspecified)	24
O=C(CCC1CCCN(C(=O)c2ccc3c(c2)OCO3)C1)NCc1ccc(F)c(F)c1 (stereo unspecified)	10
Cc1c(NC(=O)CCC2CCCCC2)cc(C(=O)N2CCOCC2)cc1[N+](=O)[O-]	12
O=C1C(=O)N(CC2CCCO2)C(c2ccco2)/C1=C(/O)c1ccc(F)cc1 (stereo unspecified)	6
COCCNC(=O)Cn1cc(C(=S)N2CCCCC2)c2ccccc21	5
CCOc1ccc(CC(=O)OCc2cc(=O)n3cc(Br)ccc3n2)cc1	-3
N#C/C(=C\c1ccc(N2CCOCC2)c([N+](=O)[O-])c1)c1nc2ccccc2[nH]1	14
O=C(Nc1ccc(Cl)c(Cl)c1)OCCNC(=O)c1ccncc1	0
CSc1nc(C)c(C(=O)C[n+]2ccccc2C)cc1C#N	15
CCOC(=O)c1sc(NC(=S)NC(=O)C23CC4CC(CC(C4)C2)C3)cc1C	25
O=C(COC(=O)c1ccccc1O)NCCCc1ccccc1	13
COC(=O)c1scc(C)c1NS(=O)(=O)c1ccc(NC(C)=O)cc1	21
COc1ccc(CCN2C(=O)NC(NS(=O)(=O)c3ccc(Cl)cc3)(C(F)(F)F)C2=O)cc1OC (stereo unspecified)	17
CCC(C)NC(=O)CCSc1ccc(C)cc1 (stereo unspecified)	9
O=C(c1ccccc1)N1CCN=C1SCc1ccc([N+](=O)[O-])cc1	13
O=C1NC(=Nc2ccc3ccccc3c2)S/C1=C/c1ccco1	17
Cn1c(N)c(C(=O)COC(=O)/C=C/c2ccc(OC(F)F)cc2)c(=O)n(C)c1=O	-5
O=[N+]([O-])c1cc(C(F)(F)F)cc([N+](=O)[O-])c1N1CCN(S(=O)(=O)c2ccccc2)CC1	14
CC(C)C(=O)NCCc1c[nH]c2ccccc12	7
O=C1/C(=C\c2ccc([N+](=O)[O-])cc2)CCc2ccccc21	20
COCCNc1c2c(nc3c(-c4ccccc4)c(C)nn13)CCC2	16
CC(C(=O)N=Nc1c(O)[nH]c2ccccc12)n1cnc2ccccc2c1=O (stereo unspecified)	18
CC(C)C[C@H](NC(=O)c1ccc(OC2CCN(C(=O)C3CC3)CC2)cc1)C(N)=O	0
COc1ccc(/C=N/NC(=S)Nc2cccc(C(=O)O)c2)cc1	-3

Fetched one by one from the entries so far, 3 records:
SMILES	Biofilm kill mix
CC(C(=O)N=Nc1c(O)[nH]c2ccccc12)n1cnc2ccccc2c1=O (stereo unspecified)	18
COc1ccc(/C=N/NC(=S)Nc2cccc(C(=O)O)c2)cc1	-3
CCC(C)NC(=O)CCSc1ccc(C)cc1 (stereo unspecified)	9
